PABP FP inh: PABP-poly(A) binding inhibition; actives 1% (n = 290,000); P11940; PABP-poly(A) RNA binding, fluorescence polarization; inhibition, % at 35 µM;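 active = 50% or more with normal probe brightness, or confirmed in later tests; inconclusive = above 50% with abnormal brightness, or retests that disagree; inactive = below 50% or failed in later tests; about a fifth of its hits are not listed in these tables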;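 also: calls also rest on retests at 20 µM and on dose response follow-up; controls were probe without protein and protein plus probe with vehicle; some compounds called inactive have numbers as strong as hits; many hits fall short of the cut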
Target sequence (P11940 whole entry, looked up): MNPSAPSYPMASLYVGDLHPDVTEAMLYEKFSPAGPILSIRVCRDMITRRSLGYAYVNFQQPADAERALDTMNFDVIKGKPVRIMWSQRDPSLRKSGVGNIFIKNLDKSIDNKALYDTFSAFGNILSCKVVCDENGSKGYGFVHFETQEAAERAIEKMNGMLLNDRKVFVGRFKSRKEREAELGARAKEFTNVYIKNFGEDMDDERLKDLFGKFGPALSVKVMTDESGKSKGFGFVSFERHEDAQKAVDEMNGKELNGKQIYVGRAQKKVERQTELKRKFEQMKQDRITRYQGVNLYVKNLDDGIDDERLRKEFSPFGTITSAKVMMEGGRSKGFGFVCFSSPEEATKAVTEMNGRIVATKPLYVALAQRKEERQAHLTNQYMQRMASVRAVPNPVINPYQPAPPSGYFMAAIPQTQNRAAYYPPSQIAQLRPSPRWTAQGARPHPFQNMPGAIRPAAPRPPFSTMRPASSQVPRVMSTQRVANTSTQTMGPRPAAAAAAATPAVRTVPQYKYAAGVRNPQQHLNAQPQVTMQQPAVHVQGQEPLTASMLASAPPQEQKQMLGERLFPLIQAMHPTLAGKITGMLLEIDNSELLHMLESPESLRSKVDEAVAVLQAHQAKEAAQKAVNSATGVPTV
eIF4H FP inh: inhibitors of RNA binding by human eIF4H | eIF4H fluorescence polarization binding assay | inhibition, % at 35 µM | AID 2012 | actives 0.94% (n = 290,000);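 active = 50% or more with normal probe brightness, or confirmed in later tests; inconclusive = above 50% with abnormal brightness, or retests that disagree; inactive = below 50% or failed in later tests; about a fifth of its hits are not listed in these tables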;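 also: calls also rest on retests at 20 µM and on dose response follow-up; 0% = protein and probe with vehicle and 100% = probe without protein; strong numbers were not always called active; many hits fall short of the cut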
Rce1 inhib: inhibitors of yeast Ras-converting enzyme; yeast membranes, quenched prenylated peptide cleavage fluorescence; calls only; actives 0.27% (n = 290,000);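 active = fall in fluorescence gain of 50% or more versus controls, with final raw signal at or below 3038400; inconclusive = same 50% fall but final raw signal above 3038400; inactive = fall in fluorescence gain under 50%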;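 also: plate controls were neutral control wells for no effect and wells lacking membranes for full effect; tested at 10 µM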
HIV Env fusion: HIV envelope-mediated fusion inhibition | HeLa-JRFL Env/CEM21 cell fusion, luciferase | inhibition, % at 12.3 µM | actives 1.1% (n = 360,000);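 active = mean replicate inhibition score of at least 50 and every replicate individually at or above 50; inconclusive = only one of the two criteria met; inactive = mean below 50 and not all replicates reaching 50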;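 also: 0% = plate neutral controls and 100% = maraviroc near 300 nM; one replicate is shown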
MT1-MMP act inh: MT1-MMP (human) activation inhibition. actives 0.061% (n = 360,000). P50281. GFP/RFP ratio change, % at 20 µM. HT1080 RFP-PRO-GFP cells, GFP/RFP ratio fluorescence, overnight; percent of plate control window, DMSO zero;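 active = GFP/RFP ratio change of at least 30% with cell ATP level not reduced by more than half and red fluorescence within 50% of control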; also: strong numbers were not always called active
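system = RFP-PRO-GFP reporter HT1080 cells | dosing = 20 µM single dose, 1% DMSO | timing = overnight cell settling, then overnight compound exposure, 37 °C, 5% CO2 | read-out basis = GFP/RFP fluorescence ratio | controls = DMSO and RFP-L50D-GFP cell wells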
CSC inhib: cancer stem cell inhibition; cancer stem cell-like cells viability, luminescence; inhibition, % at 7.5 µM; actives 1.1% (n = 300,000);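 active = mean at 75% or more and at least half the replicates too; inconclusive = mean and replicates disagree; tested in HMLE shEcad cells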;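 also: 0% = median of negative and 100% = median of positive control wells; the first replicate is given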
UUG fidelity: modulators of start codon recognition fidelity in yeast; AID 602363; actives 0.13% (n = 350,000); activity score, % at 18.7 µM; S. cerevisiae UUG-firefly luciferase reporter, luminescence/redox ratio;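 active = replicate mean at a twofold rise or more, about +100% in these data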;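 also: firefly luciferase made from a UUG start codon reports start codon fidelity; reporter light over untreated wells divided by growth signal over untreated wells; some hits fall short of that in this replicate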
eIF4H FP inh retest: also measured in eIF4H FP inh; calls as there; inhibition, %; compound at 20 µM; confirmation average;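 mean of two retest wells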
PABP FP inh retest: also measured in PABP FP inh; calls as there; inhibition, %; compound at 20 µM; confirmation repeats;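 mean of two retest wells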
MT1-MMP act inh RFP: also measured in MT1-MMP act inh; calls as there; RFP signal change, %; measured here: RFP expression control read;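 0 = vehicle wells; hits needed this value within 50% of zero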
Numbers without * were called inactive; i = inactive; ? = inconclusive; nt = no result given; & = joins results of further samples. Not a hit list; about 3% have a hit in one of these screens.

SMILES | PABP FP inh | eIF4H FP inh | Rce1 inhib | HIV Env fusion | MT1-MMP act inh | MT1-MMP act inh RFP | CSC inhib | UUG fidelity | others
CN(CC(=O)Nc1c(Cl)cccc1Cl)C(=O)c1cccc(-n2cccc2)c1 | nt | nt | i | 6 | -2 | 1 | -11 | nt
O=C(Cn1c(=O)n(Cc2ccco2)c(=O)c2c3c(sc21)CCCCC3)Nc1ccccc1 | 56* | 78* | i | 16 | -2 | -3 | 1 | -13 | eIF4H FP inh retest=89*;PABP FP inh retest=80*
O=C(NCc1ccc(Cl)cc1)c1cccnc1 | 14 | -1 | i | nt | -1 | -1 | -9 | -28
COc1cc(NC(=O)c2ccc(C)cc2)ccc1NC(=O)c1cc2ccccc2o1 | 0 | 7 | i | 15 | -2 | 3 | 1 | -13
Cc1cnc(N)c2c(=O)oc3ccccc3c12 | 1 | -4 | i | -74 | 0 | 2 | -5 | -24
N#CC(c1cccc(Cl)c1)c1ccc2c(C(F)(F)F)cc(C(F)(F)F)nc2n1 (centres undefined) | 0 | -7 | i | nt | -10 | -32 | 107* | nt
COc1ccc(CC(NC(C)=O)C(=O)NC2CCN(C(=O)c3cnccn3)CC2)cc1 (centres undefined) | -4 | -6 | i | -42 | -4 | 2 | -1 | -18
CC(C)OC(=O)CCCCCN1C(=O)CSC1=S | 0 | 6 | i | 5 | 11 | 31 | 5 | -16
O=C(NCCCc1ccccc1)c1cnc2n(c1=O)CCS2 | 10 | -3 | i | -71 | 2 | 4 | -9 | -6
Cc1cc(Br)ccc1NC(=O)CN(C)C(=O)c1cc(S(=O)(=O)N(C)C)ccc1N1CCCC1 | -8 | 11 | i | -4 | -1 | 1 | nt | 14
COc1ccc(-c2ccc(C(=O)C3CC3)cc2)cc1 | -10 | -6 | i | -68 | 0 | 1 | -1 | -19
CN(C)C(=O)N1CCCC(C(=O)NCc2cccs2)C1 (centres undefined) | -4 | -6 | i | -8 | 4 | 9 | -2 | -11

Sorted by number of heavy atoms (largest number first): 3 of the compounds above.
SMILES | PABP FP inh | eIF4H FP inh | Rce1 inhib | HIV Env fusion | MT1-MMP act inh | MT1-MMP act inh RFP | CSC inhib | UUG fidelity | others
CN(CC(=O)Nc1c(Cl)cccc1Cl)C(=O)c1cccc(-n2cccc2)c1 | nt | nt | i | 6 | -2 | 1 | -11 | nt
COc1ccc(-c2ccc(C(=O)C3CC3)cc2)cc1 | -10 | -6 | i | -68 | 0 | 1 | -1 | -19
Cc1cnc(N)c2c(=O)oc3ccccc3c12 | 1 | -4 | i | -74 | 0 | 2 | -5 | -24

Returning to the listing, starting 5 compounds before the break.
SMILES | PABP FP inh | eIF4H FP inh | Rce1 inhib | HIV Env fusion | MT1-MMP act inh | MT1-MMP act inh RFP | CSC inhib | UUG fidelity | others
CC(C)OC(=O)CCCCCN1C(=O)CSC1=S | 0 | 6 | i | 5 | 11 | 31 | 5 | -16
O=C(NCCCc1ccccc1)c1cnc2n(c1=O)CCS2 | 10 | -3 | i | -71 | 2 | 4 | -9 | -6
Cc1cc(Br)ccc1NC(=O)CN(C)C(=O)c1cc(S(=O)(=O)N(C)C)ccc1N1CCCC1 | -8 | 11 | i | -4 | -1 | 1 | nt | 14
COc1ccc(-c2ccc(C(=O)C3CC3)cc2)cc1 | -10 | -6 | i | -68 | 0 | 1 | -1 | -19
CN(C)C(=O)N1CCCC(C(=O)NCc2cccs2)C1 (centres undefined) | -4 | -6 | i | -8 | 4 | 9 | -2 | -11
CCC(=O)Nc1cc(-c2nn(C)c(=O)c3ccccc23)ccc1OC | 7 | -4 | i | -8 | 5 | 7 | nt | -2
Cc1ccnc(NC(=O)c2ccc(S(=O)(=O)N3CCCC3)cc2)c1 | nt | nt | i | nt | -1 | 2 | -3 | -11
COc1ccc(C2=NN(c3ccc(C(=O)O)cc3)C(c3ccc(OC)c(OC)c3)C2)cc1 (centres undefined) | 8 | -4 | i | 11 | -2 | -5 | 12 | -5
Nc1nnc(Cc2c[nH]c3ccccc23)s1 | 11 | -2 | i | -35 | -4 | 3 | -8 | -11
N#CC12COC3(CCCCC3C1(C#N)C#N)OC2=N (centres undefined) | ? | ? | i | -1 | -10 | 20 | 5 | nt
CC(C)Cn1c(N)c(C(=O)CSc2nc3ncc(Cl)cc3[nH]2)c(=O)n(C)c1=O | nt | nt | i | -9 | -5 | -17 | -2 | nt
Cc1ccc2nc(Nc3nc(C)cc(-c4ccccc4)n3)[nH]c(=O)c2c1 | -6 | -8 | i | -5 | -2 | -5 | 3 | -4
CC(OC(=O)c1ccc(NC(=O)CC#N)cc1)C(=O)Nc1nc(-c2ccccc2)cs1 (centres undefined) | nt | nt | i | -24 | -8 | -11 | 4 | -3
C/C(=N\NS(=O)(=O)c1ccccc1)c1cc(Cl)cc(Cl)c1O | -14 | -12 | i | -20 | 0 | 1 | 14 | 0
COc1cccc(NC(=O)C2C3CCC4C(CCC32)C4(Cl)Cl)c1 (centres undefined) | -2 | -12 | i | 7 | 0 | -7 | nt | -12
C=CCN=C1CC(C)(C)C(C(=O)OC)C(O)=C1C(=O)CCC (centres undefined) | -8 | -2 | i | -5 | 0 | 1 | -15 | nt
CS/C(=C\[N+](=O)[O-])Nc1ccc(Cl)cc1 | 11 | 3 | i | nt | 0 | -5 | -9 | 0
CCn1c(CNC(=O)c2ccc(OC)c(OC)c2)nnc1SCC(=O)Nc1ccc(OC)cc1 | 1 | 5 | i | 4 | -3 | -2 | -7 | -6
CCOC(=O)C(C)Sc1ncc(-c2ccc(Cl)cc2)cn1 (centres undefined) | 0 | 6 | i | -3 | -2 | -1 | nt | -3
CN(C)CCCCOc1ccc(F)cc1 | 1 | 5 | i | -6 | 0 | -2 | -7 | nt
COc1ccc(-c2csc3nc(C)nc(N4CCCCC4)c23)cc1OC | -6 | 0 | i | -4 | -5 | -3 | 32 | nt
CC1CN(S(=O)(=O)c2cc(C(=O)NCCC3=CCCCC3)ccc2Cl)CC(C)O1 (centres undefined) | nt | nt | i | 68* | 5 | -33 | -1 | nt
CC1CCN(C(=O)CSc2nnc(-c3ccco3)n2N)CC1 | nt | nt | nt | 3 | 0 | 3 | nt | -12
CC(C)(C)c1cc(=O)n2[nH]c(N)nc2n1 | 1 | 1 | i | 6 | -2 | 0 | -1 | nt
CCc1ccc(Nc2ccc3nonc3c2[N+](=O)[O-])cc1 | nt | nt | i | 10 | -2 | -2 | 1 | nt
CCCCSc1nc(C)nc2c1c(=O)n(C)c(=O)n2C | -6 | 6 | i | -176 | 0 | -1 | -3 | -13
C/C(=C\C(=O)c1ccc(Br)cc1)NCc1ccc2c(c1)OCO2 | -6 | 0 | i | nt | 6 | 15 | 4 | -2
Cc1cc(=O)[nH]c2nnnn12 | -1 | -18 | i | 11 | 3 | 2 | -10 | -3
COc1ccc(N2CCN(C(=O)CSc3nnc(COc4cccc5cccnc45)o3)CC2)cc1 | 4 | -2 | i | nt | -5 | 0 | -12 | -7
O=C(Nc1ccccc1)c1ccc(Nc2c([N+](=O)[O-])cc([N+](=O)[O-])c3ccccc23)cc1 | -17 | -5 | i | 37 | nt | nt | -3 | nt
CN(CC(=O)NC1CC(C)(C)NC(C)(C)C1)S(=O)(=O)c1cc(Cl)ccc1Cl | -8 | -3 | i | 20 | -1 | -1 | -9 | 2
Cc1csc(NC(=O)c2ccc3ccccc3n2)n1 | -3 | -8 | i | -169 | 1 | 2 | -8 | -24
CN(C)C(=O)C(OC(=O)c1ccc2c(c1)CCCC2)c1ccccc1 (centres undefined) | 2 | -14 | i | 22 | 0 | 1 | -1 | 8
C[C@@H]1CN([C@@H](C)CO)C(=O)CCCn2nncc2CO[C@H]1CN(C)Cc1cccc(O)c1 | nt | nt | nt | -2 | 2 | -2 | nt | -14&-6&0
O=C(Nc1nc2ccccc2n1Cc1ccccc1)c1ccco1 | -1 | 11 | i | nt | -1 | -10 | 21 | -15
O=C(NCCCN1CCOCC1)c1ccc(N2CCCC2)c([N+](=O)[O-])c1 | -3 | 3 | i | 0 | 3 | 2 | -17 | nt
CCc1ccc(OCc2ccc(C(=O)OC)o2)cc1 | 7 | 3 | i | -91 | 3 | 0 | 0 | -16
COc1ccc(NC(=S)N(CCN(C)C)Cc2cccs2)cc1 | 5 | -4 | i | -20 | 2 | -2 | -10 | -22
CC(C)CC(CO)N1CCN(C(=O)c2cccc(C(F)(F)F)c2)CCC1=O (centres undefined) | 2 | 1 | i | -15 | 2 | 5 | -9 | -12
COc1ccc(C(=O)n2cc(C(=O)c3cc(C)ccc3O)cn2)cc1 | -6 | -5 | i | 29 | 4 | 6 | 15 | -15
CCOCCCNC(=O)c1ccc2c(c1)ncn2-c1ccc(C)cc1C | -1 | -10 | i | 35 | 2 | 2 | -21 | -15
CCOC(=O)c1c(NC(=O)CC2SC(=NC)N(C)C2=O)sc(C)c1C (centres undefined) | 10 | 0 | i | 2 | -2 | -1 | -3 | -13
Cc1ccc(/C=C/C(=O)OCC(=O)N2CC(=O)Nc3ccccc32)o1 | -2 | 90 | i | -4 | -3 | 4 | -10 | nt | eIF4H FP inh retest=2;PABP FP inh retest=5
O=C(O)c1c2cc(Br)ccc2nc2[nH]c(=O)[nH]c(=O)c12 | nt | nt | nt | 43 | -1 | 3 | nt | -1
COC(CNC(=O)CN1CCN(Cc2ccccc2F)C1=O)OC | 2 | 3 | i | -13 | -2 | 2 | 0 | -3
O=C(COc1ccc(S(=O)(=O)N2CCOCC2)cc1)NC1CCCC1 | 2 | 3 | i | nt | 1 | 5 | -5 | 19
O=C(NCCc1ccccn1)C1CCCN1S(=O)(=O)c1ccc(Cl)cc1 (centres undefined) | -8 | -4 | nt | 0 | -2 | 1 | -12 | -24
O=C(CSC1=NC2(CCCCCC2)N=C1c1ccccc1)Nc1ccc2c(c1)OCCO2 | -1 | 0 | i | 28 | -5 | -12 | 6 | -4
Cc1ccc2nc(-c3ccccc3)cc(C(=O)Nc3cccnc3)c2c1 | nt | nt | nt | nt | -1 | -3 | -8 | -24
Cc1cc(C)n(Cc2ccccc2)c(=O)c1S(=O)(=O)c1ccccc1 | -5 | -8 | i | nt | 0 | 3 | -4 | -4
CC(C)/C=C/C(=O)N1CCC(N2CCC(C(=O)NCC3CCCO3)CC2)CC1 (centres undefined) | nt | nt | nt | -15 | -1 | 5 | nt | -14
CCOc1ccc(Cl)cc1CN1CCOCC1 | 12 | -13 | i | nt | -1 | 1 | -14 | nt
COc1ccc(NS(=O)(=O)c2ccc3oc(SCc4ccc(F)cc4)nc3c2)cc1 | 40 | -4 | i | 20 | 0 | -19 | 72 | -10
O=C(c1ccc(NC(=S)NCc2ccc(Cl)cc2)cc1)N1CCCCC1 | 16 | 7 | i | 8 | 5 | -1 | nt | -9
Cc1nc2cc(NC(=O)N(C)c3ccc4ccccc4c3)ccc2o1 | 20 | 12 | nt | -3 | 1 | -4 | nt | nt

Screens (PubChem BioAssay)
